Screens as filed in PubChem.
HPGD block: HPGD (human) dehydrogenase inhibition; actives 4.3% (n = 150,000); AID 894; Potency, µM, for inactives: at the top dose activity change, negative = inhibition, usual class: inhibitors; purified HPGD, NADH fluorescence kinetic, PGE2 substrate; active = well fitted inhibition curve with a large enough effect (not every such curve was filed as active); inconclusive = small, poorly fitted or top-dose-only effect, or another doubt; inactive = no such curve, though single readings can be large or run the other way;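 further: top concentration of the series not given in the record; plate controls included wells without enzyme; inactives centre near -10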
Target sequence (P15428 whole entry, looked up): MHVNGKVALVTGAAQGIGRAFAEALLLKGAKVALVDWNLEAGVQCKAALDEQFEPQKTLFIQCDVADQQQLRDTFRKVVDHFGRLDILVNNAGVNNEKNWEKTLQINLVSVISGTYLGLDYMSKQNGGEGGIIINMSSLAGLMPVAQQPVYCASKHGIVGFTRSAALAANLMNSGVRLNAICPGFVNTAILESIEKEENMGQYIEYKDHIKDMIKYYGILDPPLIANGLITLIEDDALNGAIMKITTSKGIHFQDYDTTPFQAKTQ
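20 nM HPGD preincubated 15 min at room temperature with compound in 50 mM Tris-HCl pH 8, 0.01% Tween 20. Started with 1 mM NAD+ and 30 uM prostaglandin E2; NADH fluorescence (360/450 nm) read 5 times over 30-s intervals, last minus first.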
The depositor's hits bear a star; ? = inconclusive; & = joins results of further samples. On the % scale 0 is the no-effect control and ±100 the full control effect; potency means the concentration at half of the fitted maximal effect. These rows are one share of the data, so the mix of outcomes need not match the whole.

HPGD block	Molecule
-4%&-12%	COC(=O)[C@@]1(Cc2ccc(F)cc2)[C@H]2c3cc(C(=O)N(C)C)n(CCSCCO)c3C[C@H]2CN1C(=O)c1ccccc1
-10%	O=C(O)CCC(=O)N(Cc1cccnc1)Cc1cccc(F)c1
-18%	CCn1c(-c2ccc(C)cc2)n[nH]c1=S
?	CCc1cc(Br)ccc1N1C(=O)C2CC=CCC2C1=O (configuration not stated)
-11%	Cc1oc2nc(SCCCC(=O)NCCCO)nc(N)c2c1C
-1%	O=C(Nc1cccc2cccnc12)c1cccc2ccccc12
-10%	COc1ccc(OCCCC(=O)Oc2ccc(OC)cc2)cc1
-19%	c1ccc(Sc2nc(N3CCCCC3)nc(N3CCCCC3)n2)nc1
-28%	O=C(CCc1ccccc1)Nc1cc(Cl)ccc1O
-5%	CCc1ccccc1NC(=O)c1cnc2n(c1=O)CCS2
-7%	CCC(C)(C)n1nnnc1C(c1ccccc1)N1CCN(C2CCCC2)CC1 (configuration not stated)
-4%	COc1cc(C=O)ccc1Oc1nnnn1-c1ccc(C(N)=O)cc1
-11%	CCC(=O)c1ccc(OCC(O)CN2CCN(C(c3ccccc3)c3ccccc3)CC2)cc1 (configuration not stated)
1%	CC(C)N(C)CCOC(=O)c1ccccc1Cl
-4%	CCOC(=O)c1c(CN2CCN(C)CC2)n(C)c2cc(Br)c(OC)cc12
-18%	Cc1ccc(N2C(=O)c3ccccc3C2O)nc1 (configuration not stated)
-21%	CC1/C(=C\c2ccc(Cl)cc2)C(=O)C2CC1C2(C)C (configuration not stated)
-27%	CCOC(=O)c1c(C)[nH]c(=S)c(C#N)c1-c1ccccc1
?	O=C(CNC(=O)c1ccc2c(c1)OCO2)N/N=C(Br)/C=C/c1ccccc1
-9%	Cn1cc(CN2CCN(c3ccccc3)CC2)c2ccccc21
?	CC(/C=C/c1ccc(N(C)C)cc1)=N\N=C(/N)SC1CC(=O)N(c2ccc(C(=O)O)cc2)C1=O (configuration not stated)
-13%	C=C(C)CNC(=S)Nc1nc2c(cc1C(=O)OCC)CCCC2
-18%	C/C=C/c1ccc(OCCSc2nc(C)cc(=O)[nH]2)c(OC)c1
-13%	Cc1ccc(C)c(N2CCN(C(=O)CNS(=O)(=O)c3cccs3)CC2)c1
-2%	CN(C)c1ccc(CNn2cnnc2SCc2ccc(F)cc2)cc1
-5%	COc1cc(OC)cc(-c2nc3nc(C)c(CCC(=O)O)c(C)n3n2)c1
5%	O=C(Nc1ccsc1C(=O)N1CCCCCC1)c1ccccc1
-17%	Clc1cccc(N=C2NN=C(c3ccc4c(c3)OCCO4)CS2)c1
-13%	C=CCNC(=O)c1ccccc1NC(=O)c1ccc(Cl)c(S(=O)(=O)Nc2cccc(C)c2C)c1
-22%	CCCCN(C)CCCNC(=O)CS(=O)Cc1nc(-c2ccc(OC)c(OC)c2)oc1C (configuration not stated)

Random excerpt: 4 records from the list, in no set order.
HPGD block	Molecule
-11%	Cc1oc2nc(SCCCC(=O)NCCCO)nc(N)c2c1C
-27%	CCOC(=O)c1c(C)[nH]c(=S)c(C#N)c1-c1ccccc1
-13%	Cc1ccc(C)c(N2CCN(C(=O)CNS(=O)(=O)c3cccs3)CC2)c1
-18%	CCn1c(-c2ccc(C)cc2)n[nH]c1=S

More results:
HPGD block	Molecule
0%	CCn1c(SCC(=O)N/N=C/C=C\c2ccccc2[N+](=O)[O-])nnc1-c1ccccc1
-14%	C[C@@H](CN1c2ccccc2Sc2ccccc21)N(C)C
-2%	C[C@@]12CC(=O)C3=C(CCCC3=O)N1CCc1ccccc12
-13%	Nc1ncnc(NCc2ccccc2)c1[N+](=O)[O-]
-30%	CCOC(=O)c1c(-c2cccs2)csc1NC(=O)CN1CC(C)OC(C)C1 (configuration not stated)
-5%	CC(C)CNC(=O)NC(=O)COc1ccc(C=O)cc1
?	COc1cc2oc(=O)c3c(c2cc1OCC(=O)c1c(C)n(C)c2ccccc12)CCCC3
-15%	Cn1cccc1/C=C1\CC(C(C)(C)C)C/C(=C\c2cccn2C)C1=O (configuration not stated)
?	COc1ccc(-c2nc(SCc3ccccc3)n(C(=O)c3ccco3)n2)cc1
-17%	CCOC(=O)c1sc(NC(=O)CCCCl)nc1C
-2%	c1ccc(COc2ccc(OCCCN3CCCC3)cc2)cc1
-22%	CCN(CC)c1ccc(NC(=O)COc2ccc(C#N)cc2)cc1S(=O)(=O)Nc1ccc(OC)cc1
-16%	CCOc1ccccc1-n1c(COc2ccccc2)nnc1SCC(N)=O
-15%	CN(C)S(=O)(=O)c1ccc(S(=O)(=O)N(CC(=O)Nc2ccccc2)CC2CCCO2)cc1 (configuration not stated)
3%	Cn1c(=O)c2c(ncn2CCCc2ccccc2)n(C)c1=O
25µM*	C/C=C/c1ccc(OCCOc2ccc(C=O)cc2)c(OC)c1
-15%	CCOCc1nnc(NC(=O)c2c(OC)cccc2OC)s1
-15%	CCOC(=O)c1c(NCC2CCCO2)c2ccccc2[nH]c1=O (configuration not stated)
-12%	COc1ccc(CCn2c(-c3cc([N+](=O)[O-])cc([N+](=O)[O-])c3)nc3nc4ccccc4nc32)cc1
-4%	O=C1c2ccccc2NC(c2cn[nH]c2-c2ccccc2)N1O (configuration not stated)
-17%	Cc1cc(C)nc(N/N=C/C=C/c2ccccc2)n1
-3%	Cn1c(SCC(N)=O)nnc1C1CCN(C(=O)NCc2ccccc2)CC1
32µM*	COc1ccccc1C1CC(=O)Nc2cc3c(cc21)OCCO3 (configuration not stated)
0%	O=C(O)C(c1ccccc1)C1(O)CCCC1 (configuration not stated)
?	Cc1nn(CC(=O)NCCc2ccc(Cl)cc2Cl)c(C)c1[N+](=O)[O-]
?	Cc1ccc(Nc2nc(N3CCN(C)CC3)nc(N)c2[N+](=O)[O-])cc1C
?	C/C(CC1CC(C)(C)OC1=O)=N/Nc1nc(-c2ccccc2)cs1 (configuration not stated)
-14%	CS(=O)(=O)N1CCCC(C(=O)NCCCN2CCc3ccccc3C2)C1 (configuration not stated)
?	Cc1cc(SCC(N)=O)nc(SCC(=O)c2ccccc2)n1
-28%	Cc1nn(C)c(C(=O)Nc2ccc(S(=O)(=O)NC34CC5CC(CC(C5)C3)C4)cc2)c1Br

2 entries from above, bar-delimited:
SMILES | HPGD block
CCc1cc(Br)ccc1N1C(=O)C2CC=CCC2C1=O (configuration not stated) | ?
Cn1c(SCC(N)=O)nnc1C1CCN(C(=O)NCc2ccccc2)CC1 | -3%

HPGD block, entries above that show a hit
HPGD block	Molecule
25µM*	C/C=C/c1ccc(OCCOc2ccc(C=O)cc2)c(OC)c1
32µM*	COc1ccccc1C1CC(=O)Nc2cc3c(cc21)OCCO3 (configuration not stated)

Going on with the list.
HPGD block	Molecule
-7%	COc1ccc(N2CCN(C(=S)Nc3cccc(C)c3)CC2)cc1
-5%	Cc1ccc(NC(=O)COC(=O)CN2CSCC2=O)cc1C
-5%	O=C1CC(N2CCN(Cc3ccc4c(c3)OCO4)CC2)C(=O)N1c1cccc(Cl)c1 (configuration not stated)
?	COc1ccc(N2C(=O)c3ccccc3NC2c2ccc(OC)c(Cn3nnc4ccccc43)c2)cc1 (configuration not stated)
13µM*	Cc1ccccc1CSCCC(=O)NCCC1=CCCCC1
1%	Cc1ccc(NC(=O)/C(=C\c2cccc([N+](=O)[O-])c2)NC(=O)c2cccs2)cc1
-1%	O=C(N/N=C\c1ccc(CNS(=O)(=O)c2ccc(Cl)cc2)o1)C(=O)Nc1ccc(Oc2ccccc2)cc1
-10%	CCC(C(=O)O)c1ccccc1 (configuration not stated)
?	CC1(C)CC(=O)c2cnn(-c3nc4ccccc4[nH]3)c2C1
18%	CN(CC(=O)NCCC1=CCCCC1)S(=O)(=O)c1ccc2c(c1)CCC(=O)N2
25µM*	O=C(CNC(=O)c1ccc(F)cc1)N/N=C/c1ccc(O)c([N+](=O)[O-])c1
-1%	Cc1cn(S(=O)(=O)c2ccc(Br)cc2)cn1
?	CC(C)c1nc(N2CCOCC2)c(C#N)c2c1CCC2
-26%	COc1ccc(NC(=O)c2oc3ccc(S(=O)(=O)N4CCC5(CC4)OCCO5)cc3c2C)cc1
-19%	CCCc1cc(=O)[nH]c(SCC(=O)N2CCN(c3ccc(F)cc3)CC2)n1
?	Cc1cc2n(n1)C(c1ccccc1)Nc1ccccc1-2 (configuration not stated)
-20%	O=C(Cc1cccs1)N/N=C/C=C\c1ccco1
-3%	O=C(C1=C(O)C(=O)N(Cc2ccco2)C1c1ccccc1)c1cccs1 (configuration not stated)
1%	Cc1cccc(C(C)(C)C)c1OCCCCN1CCCC1
-9%	CC(C)(C)c1ccc(/C=N/NC(=S)NC2CCCCC2)cc1
-14%	COC(=O)C(NNc1ccccc1)(NC(=O)c1ccc(F)cc1)C(F)(F)F (configuration not stated)
-21%	COc1ccc(S(=O)(=O)N(CCCN2CCOCC2)Cc2ccc(OC)c(OC)c2)cc1
-14%	Cc1ccccc1NC(=O)CC1SCCNC1=O (configuration not stated)
-7%&-8%	OCC(O)C(O)C(O)CO (configuration not stated)
-15%	CC1(C)Cc2ccccc2-c2nnc(-c3cccc(O)c3)n21
-12%	Cc1ccc(C)c(NC(=O)CS(=O)(=O)c2cn(C)c3ccccc23)c1
-4%	COc1cc(/C=N/NC(=O)CSc2nc3ccccc3n2C)cc(OC)c1OC
9%	CCCCn1c(CN2CCN(c3cccc(Cl)c3)CC2)nc2c1c(=O)[nH]c(=O)n2C
-21%	CC(/C=C/c1cccs1)=C\C(=O)O
10µM*	COc1ccc(C(CCN(Cc2ccc(OC)c(OC)c2)C(=O)CCl)c2ccccc2)cc1 (configuration not stated)
-27%	Cc1c(C(=O)NCC2CCCO2)cccc1[N+](=O)[O-] (configuration not stated)
-2%	COC1CCCCC1NS(=O)(=O)c1ccccc1 (configuration not stated)
?	c1ccc(Cc2nnc3sc(-c4ccc5c(c4)OCCO5)nn23)cc1
8.9µM*	CCOc1ccc(-n2c(N)c(C(=O)NCC3CCCO3)sc2=S)cc1 (configuration not stated)
-19%	COC(=O)C1CN(S(=O)(=O)c2ccc(C)cc2)CCN1S(=O)(=O)c1ccc(C)cc1 (configuration not stated)
-7%	CCCCn1c(CN2CCN(C(=O)OCC)CC2)nc2c1c(=O)[nH]c(=O)n2C
1%	Cc1cccc(NC(=O)C23CCC(C)(/C(=N/O)C2)C3(C)C)c1 (configuration not stated)
-1%	O=C(NCC(=O)N(CC1CCCO1)C1(C(=O)NC2CCCCC2)CCCCC1)c1ccccc1 (configuration not stated)
-7%	CCOC(=O)C(NC(=O)NCc1cccc(C(F)(F)F)c1)(OCC)C(F)(F)F (configuration not stated)
-1%	NC(N)=NC(N)=Nc1ccc(S(=O)(=O)O)cc1
-12%	COc1ccccc1C(N)=S
-5%	O=C(/C=C/c1ccco1)NC(=S)Nc1cc(C(F)(F)F)ccc1N1CCOCC1
-5%	O=P1(O)Oc2c(c(-c3ccccc3)cc3ccccc23)-c2c(-c3ccccc3)cc3ccccc3c2O1
-1%	O=C(NCc1cccnc1)C1CCCCN1S(=O)(=O)c1ccc(F)cc1 (configuration not stated)
-4%	CCN(CC)C(=O)C1=C(C)Nc2nnnn2C1c1cccnc1 (configuration not stated)
-18%	O=C(NCCC1=CCCCC1)c1ccc(=O)oc1
-3%	CCCCCn1c(C(Cc2ccccc2)NC(C)=O)nc2ccccc21 (configuration not stated)
3%	NC(=O)CSc1nnc(COc2ccccc2)n1C1CCCCC1
-9%	O=C(CN(C(=O)Cn1nnc(-c2ccccc2F)n1)c1cccc2c1CCCC2)NCc1ccccc1
-1%	CC1CC(C)CN(CCCCOc2ccc([N+](=O)[O-])cc2)C1 (configuration not stated)
5%	CCC[C@H]1C[C@H](C(=O)N[C@H]([C@@H]2O[C@H](SC)[C@@H](O)[C@H](O)[C@@H]2O)[C@H](C)O)N(C)C1
-9%	Cc1cccc(Oc2coc3cc(OC(=O)c4cncc(Br)c4)ccc3c2=O)c1
-14%	O=C(OCC(=O)c1c[nH]c2ccccc12)c1ccco1
-2%	CC(C)Oc1ccc(C(=O)O)c(C(=O)O)c1
-11%	c1ccc(Cn2c(CNc3nc4ccccc4n3CCN3CCCCC3)nc3ccccc32)cc1
-19%	COc1ccc(/C=c2\s/c(=C/C(=O)c3ccc(C)cc3)[nH]c2=O)cc1OC
-12%	Cc1ccccc1Sc1ncnc2onc(C)c12
0%	CC(=O)NC1C(OCc2ccccc2)OC(COC(C)=O)C(OC(C)=O)C1OC(C)=O (configuration not stated)
-7%	Cc1ccc(C)c(-n2c(CNC(=O)c3ccco3)nnc2SCC(=O)Nc2nnc(C)s2)c1
-4%	C=CCn1c(C(CCC(C)C)CC(C)(C)O)n[nH]c1=S (configuration not stated)
-6%	Cc1ccc(NC(=O)C2CCCN(S(=O)(=O)c3cnc[nH]3)C2)c(Br)c1 (configuration not stated)
-18%	COc1cccc(N2C(=O)CC(N3CCC(C(N)=O)(N4CCCCC4)CC3)C2=O)c1 (configuration not stated)
-9%	Cc1nn(C)c(C)c1/C=N/N=C1\CCC2C3CCc4cc(O)ccc4C3CCC12C (configuration not stated)

Taken from above.
HPGD block, CCCCn1c(CN2CCN(C(=O)OCC)CC2)nc2c1c(=O)[nH]c(=O)n2C reads -7%
HPGD block, Cc1cccc(NC(=O)C23CCC(C)(/C(=N/O)C2)C3(C)C)c1 (configuration not stated) reads 1%
HPGD block, O=C(NCCC1=CCCCC1)c1ccc(=O)oc1 reads -18%
